# Assay outcomes deposited in PubChem by several laboratories.
# Rce1 inh: inhibitors of yeast Ras-converting enzyme; Q03530; actives 0.27% (n = 290,000); yeast membranes, quenched prenylated peptide cleavage fluorescence; calls only;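 active = fall in fluorescence gain of 50% or more versus controls, with final raw signal at or below 3038400; inconclusive = same 50% fall but final raw signal above 3038400; inactive = fall in fluorescence gain under 50%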;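 note: plate controls were neutral control wells for no effect and wells lacking membranes for full effect; tested at 10 µM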
# CSC inhib: blocks cancer stem cells | AID 2717 | inhibition, % at 7.5 µM | cancer stem cell-like cells viability, luminescence | actives 1.1% (n = 300,000);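 active = mean at 75% or more and at least half the replicates too; inconclusive = mean and replicates disagree; tested in HMLE shEcad cells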;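 note: 0% = median of negative and 100% = median of positive control wells; the first replicate is given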
# eIF4H inh: inhibitors of RNA binding by human eIF4H. Q15056. eIF4H fluorescence polarization binding assay. inhibition, % at 35 µM. actives 0.94% (n = 290,000). AID 2012;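 active = 50% or more with normal probe brightness, or confirmed in later tests; inconclusive = above 50% with abnormal brightness, or retests that disagree; inactive = below 50% or failed in later tests; about a fifth of its hits are not listed in these tables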;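 note: calls also rest on retests at 20 µM and on dose response follow-up; 0% = protein and probe with vehicle and 100% = probe without protein; strong numbers were not always called active; many hits fall short of the cut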
# PABP polyA inh: PABP-poly(A) binding inhibition; actives 1% (n = 290,000); inhibition, % at 35 µM; P11940; PABP-poly(A) RNA binding, fluorescence polarization;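 active = 50% or more with normal probe brightness, or confirmed in later tests; inconclusive = above 50% with abnormal brightness, or retests that disagree; inactive = below 50% or failed in later tests; about a fifth of its hits are not listed in these tables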;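 note: calls also rest on retests at 20 µM and on dose response follow-up; controls were probe without protein and protein plus probe with vehicle; some compounds called inactive have numbers as strong as hits; many hits fall short of the cut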
# Target sequence (P11940 whole entry, looked up): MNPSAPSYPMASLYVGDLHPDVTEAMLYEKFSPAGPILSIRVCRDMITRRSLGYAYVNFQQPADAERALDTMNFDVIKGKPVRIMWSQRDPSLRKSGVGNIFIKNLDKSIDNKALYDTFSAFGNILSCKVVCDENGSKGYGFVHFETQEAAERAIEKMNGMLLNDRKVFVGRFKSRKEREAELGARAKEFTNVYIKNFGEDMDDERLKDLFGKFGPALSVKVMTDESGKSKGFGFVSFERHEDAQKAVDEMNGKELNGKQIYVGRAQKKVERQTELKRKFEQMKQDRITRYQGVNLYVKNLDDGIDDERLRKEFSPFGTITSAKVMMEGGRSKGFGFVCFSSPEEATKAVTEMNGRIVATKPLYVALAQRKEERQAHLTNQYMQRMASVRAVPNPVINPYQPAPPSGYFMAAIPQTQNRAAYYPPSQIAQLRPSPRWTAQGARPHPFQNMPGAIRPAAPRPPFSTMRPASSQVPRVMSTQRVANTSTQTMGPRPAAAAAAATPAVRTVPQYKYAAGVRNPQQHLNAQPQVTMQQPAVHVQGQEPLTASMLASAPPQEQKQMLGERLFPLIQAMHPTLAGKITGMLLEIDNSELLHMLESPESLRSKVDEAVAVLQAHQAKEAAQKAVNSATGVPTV
# eIF4H inh retest: further read-out of eIF4H inh, marked with its call; inhibition, %; compound at 20 µM; confirmation average;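 mean of two retest wells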
# PABP polyA inh retest: second read-out of PABP polyA inh, no call of its own (marks repeat the call); inhibition, %; compound at 20 µM; confirmation repeats;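 mean of two retest wells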
# * = called active by the depositor; i = inactive; ? = inconclusive; . = not tested or not shown.
SMILES,Rce1 inh,CSC inhib,eIF4H inh,PABP polyA inh,others
O=C(CN1C(=O)C2CCCN2C(=O)c2ccccc21)Nc1ccccc1-n1cccc1 (stereo unspecified),i,.,.,.,
CC1(C(=O)NCCCNc2ncc(C(F)(F)F)cc2Cl)C=CC2(CCCCC2)N1C(=O)c1ccccc1 (stereo unspecified),i,.,.,.,
CC(C)c1cc(C(C)C)c(S(=O)(=O)N2c3ccccc3[C@]3(Br)C[C@H]4C(=O)N[C@@H](Cc5ccccc5)C(=O)N4[C@H]23)c(C(C)C)c1,i,.,.,.,
COC(=O)C1=C(C(=O)OC)[C@@H]2N(C)c3ccccc3[C@@]23C[C@@H](CO)N=C3N1,i,.,.,.,
O=C(OC[C@H]1O[C@@H](OC(=O)c2cc(O)c(O)c(OC(=O)c3cc(O)c(O)c(O)c3)c2)[C@H](OC(=O)c2cc(O)c(O)c(OC(=O)c3cc(O)c(O)c(O)c3)c2)[C@@H](OC(=O)c2cc(O)c(O)c(OC(=O)c3cc(O)c(O)c(O)c3)c2)[C@@H]1OC(=O)c1cc(O)c(O)c(OC(=O)c2cc(O)c(O)c(O)c2)c1)c1cc(O)c(O)c(OC(=O)c2cc(O)c(O)c(O)c2)c1,.,90.0*,.,.,
C#CCOCCOCCOCCNc1nc(N2CCN(C(=O)CCCCCCCCCCNC(=O)[C@H](CO)n3cc(CCCCCN)nn3)CC2)nc(N2CCN(C(=O)CCCCCCCCCCNC(=O)[C@H](CCCN=C(N)N)n3cc(C[C@@H](C)CC)nn3)CC2)n1,.,12.4,.,.,
O=C1[C@@H]2C3C=CC(O3)[C@@H]2C(=O)N1c1ccccc1,.,-0.8,.,.,
Cc1ccccc1[C@]1(C)ON(c2ccccc2C(F)(F)F)C1=O,.,54.8,.,.,
CCN(CC)CCN1C(=O)C(O)=C(C(=O)c2ccc(C)o2)C1c1ccccn1 (stereo unspecified),.,1.0,.,.,
O=C1OC(=O)C2C3CCC(O3)C12 (stereo unspecified),.,-5.1,.,.,
COC(=O)c1c(-c2ccc(OC)cc2)sc2ccccc12,.,25.5,.,.,
O=C(NCc1cc(C(F)(F)F)ccc1Cl)c1cccc2c1C(=O)c1ccc(-c3ccc(OC(F)(F)F)cc3)cc1S2(=O)=O,.,19.1,.,.,
CC(=O)OC[C@]12CC[C@H]3[C@@](C)(CC[C@H]4C(C)(C)CCC[C@]34C)[C@@H]1C[C@H](C1=CC(=O)O[C@H]1OC(C)=O)O2,.,106.7*,.,.,
C#CCOCCOCCOCCNc1nc(N2CCN(C(=O)CCCCCCCCCCNC(=O)[C@H](CCCCN)n3cc(CCO)nn3)CC2)nc(N2CCN(C(=O)CCCCCCCCCCNC(=O)[C@H](CCCCN)n3cc(C[C@@H](C)CC)nn3)CC2)n1,.,94.5*,.,.,
C#CCOCCOCCOCCNc1nc(N2CCN(C(=O)CCCCCCCCCCNC(=O)[C@H](CO)n3cc(CCCSC)nn3)CC2)nc(N2CCN(C(=O)CCCCCCCCCCNC(=O)[C@@H]([C@H](C)O)n3cc(C)nn3)CC2)n1,.,-22.6,.,.,

# Gathered by group: the compounds so far with a CF3 group
SMILES,Rce1 inh,CSC inhib,eIF4H inh,PABP polyA inh,others
CC1(C(=O)NCCCNc2ncc(C(F)(F)F)cc2Cl)C=CC2(CCCCC2)N1C(=O)c1ccccc1 (stereo unspecified),i,.,.,.,
Cc1ccccc1[C@]1(C)ON(c2ccccc2C(F)(F)F)C1=O,.,54.8,.,.,
O=C(NCc1cc(C(F)(F)F)ccc1Cl)c1cccc2c1C(=O)c1ccc(-c3ccc(OC(F)(F)F)cc3)cc1S2(=O)=O,.,19.1,.,.,

# The list goes on.
SMILES,Rce1 inh,CSC inhib,eIF4H inh,PABP polyA inh,others
CNC[C@H](Cc1cccc2ccccc12)NC[C@H](CCSC)NCC1CCC(C(C)(C)C)CC1 (stereo partly specified),.,90.3*,.,.,
CC(C)=CCc1c(O)c(CC=C(C)C)c2c(c1O)-c1cc(O)c(O)cc1CC2,.,-4.8,.,.,
CC(=O)c1ccc(-c2csc(N3CCC(C(N)=O)CC3)n2)cc1,.,-21.5,.,.,
Cc1cccc(C(=O)Nc2ccc(C)c(OC(=O)c3cccc(C)c3)c2)c1,.,.,-8.4,1.6,
Cc1nn(-c2ccccn2)c2c1C(c1ccccn1)C1=C(CCCC1=O)N2 (stereo unspecified),.,.,-2.2,-2.9,
O.O.O.O=S(=O)([O-])OC[C@H]1O[C@@H](O[C@]2(COS(=O)(=O)[O-])O[C@H](OS(=O)(=O)[O-])[C@@H](OS(=O)(=O)[O-])[C@@H]2OS(=O)(=O)[O-])[C@H](OS(=O)(=O)[O-])[C@@H](OS(=O)(=O)[O-])[C@@H]1OS(=O)(=O)[O-].[Al],.,.,-0.8,2.5,
CCN(CC)CCN1C(=O)C(=O)/C(=C(/O)c2cnn(-c3ccccc3)c2C)C1c1cccs1 (stereo unspecified),.,.,-4.7,2.9,
Cn1c(O)c(C=Nc2ccc(Cc3ccncc3)cc2)c(=O)n(C)c1=O,.,.,-11.1,-4.5,
Cc1cc(NC(=O)CSc2nnc3c(C)cc4cc5c(cc4n23)OCO5)no1,.,.,4.8,1.6,
Cc1nc2c3c(-c4ccccc4)c(-c4ccccc4)oc3ncn2n1,.,.,-8.3,0.3,
Cc1ccc(-n2nc(C)c(C3C(C#N)=C(N)OC4=C3C(=O)CC(C)(C)C4)c2Cl)cc1 (stereo unspecified),.,.,-10.8,-1.3,
CCOC(=O)c1[nH]c2ccc(OC)cc2c1NC(=O)C(C)N1CCC2(CC1)OCCO2 (stereo unspecified),.,.,-7.3,-8.5,
CCOCCCNC(=O)c1cn(C)c2ccc(S(=O)(=O)N(C)C3CCCCC3)cc2c1=O,.,.,-1.5,2.4,
CC1CCCN(c2nc3c(c(=O)[nH]c(=O)n3C)n2CCSc2ncccn2)C1 (stereo unspecified),.,.,-10.8,-1.8,
O=C(CCCCC(=O)N1CCN(c2ccccc2)CC1)N1CCN(c2ccccc2)CC1,.,.,-0.6,6.6,
CCOc1cc(NC(=O)C2CC2)c(OCC)cc1NC(=O)c1cccnc1,.,.,3.9,-4.7,
Cc1ccc(CN2C(=O)/C(=C3\SC(N4CCOCC4)=NC3=O)c3cc(Br)ccc32)cc1,.,.,5.7,0.4,
CC1=CC(C)(C)N(C(=O)C(C)N2C(=O)c3ccccc3C2=O)c2c(C)cc(C)cc21 (stereo unspecified),.,.,-8.6,4.9,
Cc1ccc(-c2nn(-c3ccccc3)c3[nH]c(=O)c(CNCCN(C)C)cc23)cc1,.,.,1.0,17.6,
COc1cccc(C2/C(=C(\O)c3c(C)nc4c(C)cccn34)C(=O)C(=O)N2CCCN(C)C)c1 (stereo unspecified),.,.,1.5,-5.6,
COc1ccc(CN2C(=O)/C(=C/c3ccc(-c4ccc(Cl)c(C(=O)O)c4)o3)SC2=S)cc1,.,.,?,3.2,
CC1Cc2ccccc2N1C(=O)CSc1nnc(-c2ccc(S(=O)(=O)N3CCCCC3)cc2)o1 (stereo unspecified),.,.,1.5,2.1,
COc1ccc(-c2nnc3n2N=C(c2ccccc2)CS3)cc1OC,.,.,1.4,4.7,
CCc1nc(N2CCN(c3nc(C)cc(C)n3)CC2)c2oc3ccccc3c2n1,.,.,-3.3,13.5,
Cc1noc2nc(-c3cccs3)cc(-c3nnc4n3CCCCC4)c12,.,.,0.1,3.6,
COc1ccc(CSc2nnc3n(C)c(=O)c4c5c(sc4n23)CCCC5)cc1,.,.,-1.6,1.7,
OC(CNC1CCCCC1)CN1CCN(CC(O)CNC2CCCCC2)CC1 (stereo unspecified),.,.,-7.7,1.1,
COCCn1c(-c2cccs2)nc2c(c(=O)c3ccccc3n2C)c1=O,.,.,7.1,4.3,
Cc1ccc2cc(CN(Cc3cccs3)Cc3nnnn3C(C)(C)C)c3nnnn3c2c1,.,.,-9.7,1.7,
COc1cccc(/C(O)=C2/C(=O)C(=O)N(CCCN(C)C)C2c2cccc(Cl)c2)c1 (stereo unspecified),.,.,-7.6,-14.4,

# Random excerpt: 2 records from the list, in no set order.
SMILES,Rce1 inh,CSC inhib,eIF4H inh,PABP polyA inh,others
COc1cccc(C2/C(=C(\O)c3c(C)nc4c(C)cccn34)C(=O)C(=O)N2CCCN(C)C)c1 (stereo unspecified),.,.,1.5,-5.6,
Cc1noc2nc(-c3cccs3)cc(-c3nnc4n3CCCCC4)c12,.,.,0.1,3.6,

# Structures from the list above containing an aryl thioether with sulfur outside any ring:
SMILES,Rce1 inh,CSC inhib,eIF4H inh,PABP polyA inh,others
Cc1cc(NC(=O)CSc2nnc3c(C)cc4cc5c(cc4n23)OCO5)no1,.,.,4.8,1.6,
CC1CCCN(c2nc3c(c(=O)[nH]c(=O)n3C)n2CCSc2ncccn2)C1 (stereo unspecified),.,.,-10.8,-1.8,
CC1Cc2ccccc2N1C(=O)CSc1nnc(-c2ccc(S(=O)(=O)N3CCCCC3)cc2)o1 (stereo unspecified),.,.,1.5,2.1,
COc1ccc(CSc2nnc3n(C)c(=O)c4c5c(sc4n23)CCCC5)cc1,.,.,-1.6,1.7,

# (more compounds)
SMILES,Rce1 inh,CSC inhib,eIF4H inh,PABP polyA inh,others
CCOC(=O)c1cc2c(=O)n3cc(C)ccc3nc2n(Cc2cccnc2)c1=N,.,.,1.9,0.8,
CCOc1ccc(C2=Cc3cc(OC)c(OC)cc3C(=C(Cl)Cl)O2)cc1,.,.,-3.6,0.1,
COc1cccc(C2/C(=C(\O)c3c(C)nc4c(C)cccn34)C(=O)C(=O)N2CCCN(C)C)c1OC (stereo unspecified),.,.,2.9,3.6,
Cc1ccc(S(=O)(=O)NC(=O)N2CCC(C)CC2)cc1,.,.,-2.5,-2.1,
CCOc1ccc(-c2nc(-c3ccc(OC)c(OC)c3)no2)cc1OCC,.,.,1.5,11.4,
N#CCCS(=O)(=O)c1nnnn1-c1ccccc1,.,.,-8.1,-2.9,
CCOC(=O)c1[nH]c(C)c(C(=O)O)c1C,.,.,15.0,0.4,
CSC1=C(C#N)C(c2ccccc2Cl)C2=C(CCCC2=O)N1 (stereo unspecified),.,.,14.9,-0.9,
Cc1cccc(-n2c(N)cc(=O)nc2SC(C)C(=O)NC2CCCCC2)c1 (stereo unspecified),.,.,-5.4,3.2,
O=C(O)c1cc(C(=O)O)cc(-c2ccc(/C=c3/sc4nc5ccccc5n4c3=O)o2)c1,.,.,55.8*,-0.1,eIF4H inh retest=55.2*;PABP polyA inh retest=30.0
COc1ccc2c(c1)c(=O)oc1cc3oc(C)c(C)c3cc12,.,.,40.6,1.2,
COc1cccc(C2/C(=C(/O)c3ccncc3)C(=O)C(=O)N2CCCN(C)C)c1 (stereo unspecified),.,.,-9.0,0.7,
CCCC(=O)N1CCN(c2ccc(C(=O)c3ccc(OC)c(Br)c3)cc2F)CC1,.,.,-4.8,4.6,
CN(C)CCCN1C(=O)C(=O)/C(=C(/O)c2ccc(OCc3ccccc3)cc2)C1c1cccnc1 (stereo unspecified),.,.,4.3,-7.9,
CC1CN(S(=O)(=O)c2ccc(C(=O)Nc3sc4c(c3C(N)=O)CCN(C)C4)cc2)CC(C)O1 (stereo unspecified),.,.,-4.6,-10.8,
Cc1ccn2cc(-c3ccc(S(=O)(=O)N4CCOCC4)cc3)nc2c1,.,.,3.6,-4.7,
CCc1nnc(NS(=O)(=O)c2ccc(NS(=O)(=O)c3ccc(NC(C)=O)cc3)cc2)s1,.,.,3.3,14.7,
CC(C)[C@@H]1NC(=O)c2cc([N+](=O)[O-])cc(I)c2NCCCC[C@@H](C(=O)NC(CC(=O)O)C(N)=O)NC(=O)[C@H](CO)NC1=O (stereo partly specified),.,.,29.1,-1.4,
c1cncc(-c2nc(Oc3ccc(-c4nnco4)cc3)c3c4c(sc3n2)CCCC4)c1,.,.,-4.0,-0.7,
Cc1sc2nc3n(c(=O)c2c1C)Cc1ccccc1-3,.,.,-1.7,-14.1,
CC(=O)c1ccc(N2CCN(C(=O)c3ccc4c(Cl)c5c(nc4c3)CCCC5)CC2)cc1,.,.,-3.9,3.9,
CCOC(=O)c1cnc2c(N=Nc3cccc(Cl)c3)c(N)nn2c1N,.,.,-12.9,-0.1,
CCOC(=O)COc1cccc2c(=O)n(CC(=O)NCCc3ccc(OC)c(OC)c3)ccc12,.,.,14.6,5.0,
O=C(O)CN1CCNCC1,.,.,3.5,12.6,
Cc1cc(C)c(NC(=O)C(C)Sc2nnc(-c3ccco3)n2-c2ccccc2)c(C)c1 (stereo unspecified),.,.,-3.4,-4.9,
CC(=O)c1cn(CCCCCCCCCCn2cc(C(C)=O)c(=O)[nH]c2=O)c(=O)[nH]c1=O,.,.,-8.8,-5.0,
Cn1c(=O)c2c(SCC(=O)N3CCOCC3)nc(CC(C)(C)C)nc2n(C)c1=O,.,.,-5.2,-9.1,

# This is a subset; count on the stated rates, not on these rows.
